Assay outcomes: PubChem, several laboratories
CSC inhib = blocks cancer stem cells; inhibition, % at 7.5 µM; cancer stem cell-like cells viability, luminescence; AID 2717; 1.1% of 300,000 active;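 active = mean at 75% or more and at least half the replicates too; inconclusive = mean and replicates disagree; tested in HMLE shEcad cells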;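 note: 0% = median of negative and 100% = median of positive control wells; the first replicate is given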
HIV Env fusion = HIV envelope-mediated fusion inhibition. HeLa-JRFL Env/CEM21 cell fusion, luciferase. inhibition, % at 12.3 µM. 1.1% of 360,000 active;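 active = mean replicate inhibition score of at least 50 and every replicate individually at or above 50; inconclusive = only one of the two criteria met; inactive = mean below 50 and not all replicates reaching 50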;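 note: 0% = plate neutral controls and 100% = maraviroc near 300 nM; one replicate is shown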
Rce1 inhib = inhibitors of yeast Ras-converting enzyme; Q03530; yeast membranes, quenched prenylated peptide cleavage fluorescence; calls only; 0.27% of 290,000 active;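 active = fall in fluorescence gain of 50% or more versus controls, with final raw signal at or below 3038400; inconclusive = same 50% fall but final raw signal above 3038400; inactive = fall in fluorescence gain under 50%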;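 note: plate controls were neutral control wells for no effect and wells lacking membranes for full effect; tested at 10 µM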
Target sequence (Q03530 whole entry, looked up): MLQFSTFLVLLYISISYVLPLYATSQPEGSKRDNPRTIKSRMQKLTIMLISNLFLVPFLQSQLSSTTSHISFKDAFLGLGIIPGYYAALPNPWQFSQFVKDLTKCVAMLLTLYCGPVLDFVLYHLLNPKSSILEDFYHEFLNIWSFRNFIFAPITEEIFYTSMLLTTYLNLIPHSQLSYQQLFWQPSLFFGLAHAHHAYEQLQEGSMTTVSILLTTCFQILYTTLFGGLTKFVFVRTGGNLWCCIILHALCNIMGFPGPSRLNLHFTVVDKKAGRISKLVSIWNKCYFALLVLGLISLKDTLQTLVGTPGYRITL
UUG fidelity = yeast start codon fidelity modulation; S. cerevisiae UUG-firefly luciferase reporter, luminescence/redox ratio; activity score, % at 18.7 µM; 0.13% of 350,000 active;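 active = replicate mean at a twofold rise or more, about +100% in these data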;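 note: firefly luciferase made from a UUG start codon reports start codon fidelity; reporter light over untreated wells divided by growth signal over untreated wells; some hits fall short of that in this replicate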
MT1-MMP act inh = MT1-MMP (human) activation inhibition. P50281. HT1080 RFP-PRO-GFP cells, GFP/RFP ratio fluorescence, overnight; percent of plate control window, DMSO zero. GFP/RFP ratio change, % at 20 µM. 0.061% of 360,000 active. AID 651647;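 active = GFP/RFP ratio change of at least 30% with cell ATP level not reduced by more than half and red fluorescence within 50% of control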; note: strong numbers were not always called active
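Read-out: GFP/RFP fluorescence ratio; Test system: RFP-PRO-GFP reporter HT1080 cells; Compound dosing: single-point 20 µM compound, 1% DMSO; Times: overnight compound exposure at 37 °C.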
eIF4H FP inh = inhibitors of RNA binding by human eIF4H; Q15056; eIF4H fluorescence polarization binding assay; inhibition, % at 35 µM; 0.94% of 290,000 active;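 active = 50% or more with normal probe brightness, or confirmed in later tests; inconclusive = above 50% with abnormal brightness, or retests that disagree; inactive = below 50% or failed in later tests; about a fifth of its hits are not listed in these tables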;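 note: calls also rest on retests at 20 µM and on dose response follow-up; 0% = protein and probe with vehicle and 100% = probe without protein; strong numbers were not always called active; many hits fall short of the cut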
PABP FP inh = PABP-poly(A) binding inhibition. 1% of 290,000 active. inhibition, % at 35 µM. P11940. PABP-poly(A) RNA binding, fluorescence polarization;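 active = 50% or more with normal probe brightness, or confirmed in later tests; inconclusive = above 50% with abnormal brightness, or retests that disagree; inactive = below 50% or failed in later tests; about a fifth of its hits are not listed in these tables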;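 note: calls also rest on retests at 20 µM and on dose response follow-up; controls were probe without protein and protein plus probe with vehicle; some compounds called inactive have numbers as strong as hits; many hits fall short of the cut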
Target sequence (P11940 whole entry, looked up): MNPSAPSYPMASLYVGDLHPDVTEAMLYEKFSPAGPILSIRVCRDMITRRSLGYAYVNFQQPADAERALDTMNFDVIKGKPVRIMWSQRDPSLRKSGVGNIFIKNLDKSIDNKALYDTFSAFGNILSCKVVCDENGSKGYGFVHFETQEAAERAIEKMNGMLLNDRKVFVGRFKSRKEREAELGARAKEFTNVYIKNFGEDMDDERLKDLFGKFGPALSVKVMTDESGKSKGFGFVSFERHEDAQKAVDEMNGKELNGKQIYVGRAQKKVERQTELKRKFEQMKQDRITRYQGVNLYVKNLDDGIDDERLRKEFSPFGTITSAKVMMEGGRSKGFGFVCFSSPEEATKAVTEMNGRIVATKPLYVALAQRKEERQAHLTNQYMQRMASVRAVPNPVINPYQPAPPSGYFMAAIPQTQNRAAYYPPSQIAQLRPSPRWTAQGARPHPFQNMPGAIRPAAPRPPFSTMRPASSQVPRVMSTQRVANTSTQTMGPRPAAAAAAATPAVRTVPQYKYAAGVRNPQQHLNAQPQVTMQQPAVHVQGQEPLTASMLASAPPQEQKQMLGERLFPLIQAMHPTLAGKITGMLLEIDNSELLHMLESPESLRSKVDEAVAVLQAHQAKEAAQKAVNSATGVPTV
eIF4H FP inh retest = second read-out of eIF4H FP inh, no call of its own (marks repeat the call); inhibition, %; compound at 20 µM; confirmation average;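 mean of two retest wells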
PABP FP inh retest = further read-out of PABP FP inh, marked with its call; inhibition, %; compound at 20 µM; confirmation repeats;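 mean of two retest wells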
MT1-MMP act inh RFP = recorded beside MT1-MMP act inh, whose call it bears; RFP signal change, %; measured here: RFP expression control read;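 0 = vehicle wells; hits needed this value within 50% of zero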
An asterisk follows results filed as active; i = inactive; ? = inconclusive; · = not tested or not shown. Some of the compounds tested (hit frequency here may not be typical).

SMILES	CSC inhib	HIV Env fusion	Rce1 inhib	UUG fidelity	MT1-MMP act inh	MT1-MMP act inh RFP	eIF4H FP inh	PABP FP inh	others
CCCCOc1ccc(N2C(=O)CC(N(O)c3ccccc3)C2=O)cc1 (centres undefined)	-1	-179	i	-20	5	-2	4	-2
O=C(O)C(Oc1ccc(Cl)cc1)c1ccc(Cl)cc1 (centres undefined)	·	13	·	-17	-5	2	·	·
O=C(c1ccco1)N1N=C(c2ccncc2)CC1(O)C(F)(F)F (centres undefined)	-14	-24	i	·	-4	0	9	21
CCN1C(=O)c2cccc3c(NC(=O)C(C)(C)C)ccc1c23	-22	·	i	-4	-1	0	-8	14
Cc1ccc(C(=O)OCC(=O)N2CCc3ccccc32)cc1	·	-20	i	-11	-1	-2	-9	-4
O=C(c1nc2ccccn2c1CN1CCN(c2ccccc2O)CC1)N1CCCC1	-3	-8	i	·	-2	-1	-7	-1
O=C(Cn1nnc(-c2cc(C(F)(F)F)cc(C(F)(F)F)c2)n1)NNC(=S)Nc1ccc(Cl)cc1	-7	17	i	·	-1	-3	14	2
COc1ccc(N2C(N)=NC(N)=NC23CCCC3)cc1	3	·	i	-15	4	3	-3	13
O=C(Cn1c(=O)sc2ccccc21)NCc1ccco1	-21	·	i	5	-7	5	-6	8
Cc1cc(C)n2nc(SCc3cc(=O)oc4cc(C)c(C)cc34)nc2n1	-8	·	i	·	·	·	6	-1
O=C(c1ccccc1)n1ccc2ccccc21	5	·	i	-11	-1	0	-7	-1
CCCC(=O)Nc1cc2c3c(c1)CC(=O)N3CCC2	-6	-9	i	3	-2	0	2	7
CC(C)Cc1nn2c(=O)cc(CSCC(=O)Nc3ccccc3F)nc2s1	-3	5	i	-12	-1	1	-3	4
CCOc1ncccc1C(=O)N(CC)CC(=O)NCc1ccc(F)cc1	-11	8	·	-15	-2	3	-11	-7
Cc1ccc(-n2c(SCC(=O)N3CCCCC3)nc(O)c(Cc3ccccc3)c2=O)cc1	4	1	i	9	0	7	·	·
C#CCSc1nnc(-c2ccc(O)cc2)o1	-7	-31	·	-8	2	4	0	3
CCCC(=O)Nc1cc(-c2cn3cccnc3n2)ccc1OC	1	6	i	-9	6	1	-4	2
CCOC(=O)C1CCN(C(=O)c2oc3ccc4c(c3c2C)C(O)CC2(CCCCC2)O4)CC1 (centres undefined)	28	-8	i	18	3	-8	-1	0
Cc1sc(NC(=O)c2ccco2)c(CN2CCN(Cc3ccccc3)CC2)c1C	-11	-39	i	-9	-12	-10	2	7
COc1ccc(NC(=O)CSc2nc3c(sc4ccccc43)c(=O)n2CCCN2CCCC2)cc1	8	·	i	-8	-1	4	·	·
CCNC(=S)N1CCN(CCN=CC2=C(O)CC(c3cccs3)CC2=O)CC1 (centres undefined)	-2	·	i	·	6	4	-6	-4
C=CCc1c(OC(C)=O)c2ccccc2n(C)c1=O	-9	-33	i	-8	1	4	-13	1
Cc1ccccc1OCC(=O)N(Cc1nnc(-c2ccc(Cl)cc2)o1)C(C)C	10	·	·	14	-4	3	·	·
COc1ccc(Nc2nc(Cl)nc(Nc3ccc(OC)cc3OC)n2)c(OC)c1	7	0	i	-20	0	0	-14	-9
COc1ccc(CC2(CO)CCN(C(=O)NCc3ccccc3)CC2)cc1	23	-15	i	4	5	4	-2	-7
CC12CN(C(=O)c3ccccc3Br)CC(C)(CN(C(=O)c3ccccc3Br)C1)C2=O	-5	32	i	·	9	-1	-10	6
COc1cc(-c2ncc3ccccn23)cc(OC)c1OC	-12	·	i	-28	-5	0	1	20
CCC(C)NC(=O)C1CCC(CNS(=O)(=O)c2ccc3c(c2)N(C(C)=O)CCO3)CC1 (centres undefined)	-9	0	i	-3	6	3	-17	10
CC(=O)c1cccc(CN2CCN(C3CCCC3)C(CCO)C2)c1 (centres undefined)	-1	-24	i	·	-2	0	-4	-4
CC(C)(C)c1cc(=O)[nH]c(SCc2ccccc2)n1	-7	5	i	·	1	-6	-1	-5
O=C(NCCC(=O)N(Cc1ccco1)Cc1cccs1)c1ccc([N+](=O)[O-])cc1	·	-48	·	-12	-3	-3	·	·
CCOc1cc(C(=O)N2CCC(CC3CC(c4cccc(Br)c4)=NO3)(C(=O)NCC3CCCCC3)CC2)cc(OCC)c1OCC (centres undefined)	-2	17	i	-6	0	-6	5	8
O=C(NCCCn1ccnc1)c1cc(S(=O)(=O)N2CCOCC2)ccc1F	-6	11	·	-33	0	6	-4	5
COC(=O)c1ccc(NS(=O)(=O)c2cc3c4c(c2)CCC(=O)N4CCC3)cc1	-13	-5	i	-3	3	-1	·	·
FC(F)Oc1ccc(C2N=C(c3ccccc3)NO2)cc1 (centres undefined)	-5	-111	i	-26	0	-2	-1	-3
CCOC(=O)c1cc(-c2ccc(OC)cc2)n[nH]1	-1	-15	i	·	1	2	7	11
COc1ccc(-n2ncc3c(=O)n(CC(C)=O)cnc32)cc1	-13	-17	i	3	-4	2	10	-5
COc1cccc(N2CCN(Cc3ccco3)CC2)c1	-11	4	i	-13	1	3	-1	13
CCOc1ccc(N(CC(=O)Nc2cc(OC)cc(OC)c2)S(=O)(=O)c2c(C)[nH]c(=O)[nH]c2=O)cc1	-17	-4	i	-3	-1	1	·	·
CC(C)[C@H]1COCCS(=O)(=O)N1Cc1ccccc1F	5	17	i	-20	6	1	·	·
COC(=O)c1ccc(OCc2nn[nH]n2)cc1	-2	8	i	-23	2	3	-4	5
COC(=O)C1=C(O)/C(=C\c2ccc(CNS(=O)(=O)c3ccc(Cl)cc3)o2)N=C1C	-14	-20	i	·	-10	11	?	-12
CSc1ncc(CN2CCN(CCC(C)C)C(CCO)C2)cn1 (centres undefined)	-2	23	i	-20	4	3	3	-1
Nc1ncc(-c2ccc([N+](=O)[O-])cc2)cn1	-2	·	i	-9	-3	5	24	20
COc1ccc(NC(=O)CS(=O)CC(=O)Nc2cccnc2)cc1 (centres undefined)	-3	-10	i	-13	0	-1	1	0

At a glance, part of the list above.
SMILES	CSC inhib	HIV Env fusion	Rce1 inhib	UUG fidelity	MT1-MMP act inh	MT1-MMP act inh RFP	eIF4H FP inh	PABP FP inh	others
CCOc1ccc(N(CC(=O)Nc2cc(OC)cc(OC)c2)S(=O)(=O)c2c(C)[nH]c(=O)[nH]c2=O)cc1	-17	-4	i	-3	-1	1	·	·
CC(C)[C@H]1COCCS(=O)(=O)N1Cc1ccccc1F	5	17	i	-20	6	1	·	·
COC(=O)c1ccc(OCc2nn[nH]n2)cc1	-2	8	i	-23	2	3	-4	5

Continued:
SMILES	CSC inhib	HIV Env fusion	Rce1 inhib	UUG fidelity	MT1-MMP act inh	MT1-MMP act inh RFP	eIF4H FP inh	PABP FP inh	others
C=CCN1C(=O)CSc2ccc(C(=O)OCC)cc21	7	-2	i	-17	-6	-5	0	-2
CCN(CC)c1ccc2cc(C=O)c(=O)oc2c1	17	-56	i	9	-32	1	?	?
O=C(/C=C/c1cccc([N+](=O)[O-])c1)N1CCN(C(=O)c2ccco2)CC1	-3	-12	i	-12	2	0	-2	-5
COCCCNC(=O)CN(c1cc(C(F)(F)F)ccc1Cl)S(C)(=O)=O	43	5	i	-16	-3	0	3	-1
Cc1ccc(-n2cc(CNC(C)c3cnn(C)c3)c(-c3ccc(F)cc3)n2)cc1 (centres undefined)	19	4	·	·	-4	-1	8	6
CN(CC(=O)O/N=C(\N)c1ccc([N+](=O)[O-])cc1)S(=O)(=O)c1ccccc1	-3	-58	i	-7	1	-2	2	-8
COC(=O)Cc1ccc(NC(=S)NC2CC2)cc1	-14	2	i	·	9	-3	-12	-8
CC1SC(c2ccc(Cl)cc2Cl)NC1=O (centres undefined)	-16	·	i	-5	4	1	-3	-4
C=CCSc1nc2sc3c(c2c(=O)n1-c1ccc(C)cc1)CCN(C)C3	0	-15	i	-6	-2	-4	-6	4
Cc1cccc(/C=N/NC(=O)C(C)Nc2cccc3ccccc23)n1 (centres undefined)	2	·	i	-12	-92	6	22	39
CCCCOc1ccc(NS(=O)(=O)c2ccc(-n3cnnn3)cc2)cc1	12	-17	i	-10	6	-6	-14	11
CCOC(=O)CN1N=C(/C=C/c2ccc(C)cc2)CCC1=O	-13	·	i	-9	13	8	-14	0
Cc1ccc(S(=O)(=O)NN2C(=O)/C(=C/c3cccc(F)c3)SC2=S)cc1	-13	-33	i	2	-2	-1	4	-3
O=C(NCCN1CCCC1)c1cc(-c2ccncc2)nc2ccc(S(=O)(=O)N3CCOCC3)cc12	-11	·	i	·	10	10	2	-3
CCCOc1c(Br)cc(C(=O)OCC(=O)NC2CC2)cc1OC	·	0	i	·	0	-3	·	·
C/C(CCC(C)C)=N\Nc1ccc(S(N)(=O)=O)cc1[N+](=O)[O-]	-5	-17	i	·	1	-1	50	1	eIF4H FP inh retest=2;PABP FP inh retest=-3
O=C(O)c1cccc(NS(=O)(=O)/C=C/c2ccccc2)c1	-4	-54	i	-5	0	0	-4	0
Cc1noc(/C=C/c2ccc(-c3ccccc3Cl)o2)c1[N+](=O)[O-]	12	·	i	5	-48	4	?	?
CCOC(=O)Cc1csc(NC(=O)c2ccc(Cl)nc2)n1	20	-12	i	-8	3	-6	0	-10
Cn1c(=O)c2nnn(/N=C(\c3ccccc3)C3CC3)c2n(C)c1=O	-8	·	i	-11	1	4	-3	0
Cc1ccc2oc(C(=O)N(Cc3ccc(N(C)C)cc3)CC3CCCO3)c(C)c2c1 (centres undefined)	·	12	i	-1	-5	-3	-6	8
CCc1ccc(N2C(=O)/C(=C/c3cccs3)N(CC(=O)OC)C2=S)cc1	·	·	i	-10	5	0	-11	1
Nc1nc2c(ncn2[C@H]2C[C@H](O)[C@@H](CO)O2)c(=O)[nH]1	-1	0	i	-17	-3	3	·	·
CCCCC(=O)Nc1sc2c(c1C(=O)OCC)CCC(C=O)=C2Cl	42	·	i	·	-11	0	5	3
Cc1c(C(=O)NCc2ccco2)oc2ccc(Br)cc12	·	-300	·	16	-3	-1	·	·
CSc1ccccc1NC(=O)COc1ccc(Cl)cc1	-1	-100	i	-24	2	-2	-4	1
Clc1ccccc1OCCCCN1CCNCC1	36	1	·	-2	1	1	23	8
O=C1c2ccccc2C(=O)N1CSc1nnc(Nc2ccccc2F)s1	·	·	i	·	0	6	-1	-17
CCN(CC(=O)NCc1ccc(F)cc1)S(=O)(=O)c1ccc(C)cc1	-5	13	i	-16	-2	-1	-8	3
CCC(C)[C@H](NC(=O)NCc1ccccc1)C(=O)O (some centres undefined)	-11	0	i	11	-2	-2	-1	-4
O=C1NC2(CCCCCC2)C(=O)N1Cc1ccc(Br)cc1	6	0	i	-16	0	-4	-14	-1
Cc1sc2nc[nH]c(=S)c2c1-c1ccccc1	-12	-6	i	·	3	-2	-4	-2
O=S(=O)(Nc1ccc(-c2cn3cccnc3n2)cc1)c1ccccc1	-2	9	i	·	7	2	7	8
CCOC(=O)Cc1csc(NC(=O)Cc2ccccc2)n1	-6	-9	i	·	0	-3	-13	11
O=C(NCc1nc(-c2ccc(C(F)(F)F)cc2)no1)Nc1ccc(F)cc1F	10	20	i	-10	2	4	8	-2
CS(=O)(=O)N1CCN(c2ccccc2NC(=O)Cc2ccccc2)CC1	2	·	i	-14	-7	5	-9	7
CCN(CC)CCNc1nc(-c2ccc(OC(F)F)cc2)c(C)s1	48	-14	i	·	3	0	-7	-10
